Screens: PubChem, National Center for Advancing Translational Sciences (NCATS)
Sfp inh: Sfp phosphopantetheinyl transferase inhibition. Potency, µM, inactives show max response, negative = inhibition, usual class: inhibitors. Biochemical Sfp PPTase activity, qHTS. 310,000 tested, 3.5% active. Q9F4F7; active means well fitted inhibition curve with a large enough effect; inconclusive means small, poorly fitted or top-dose-only effect, or another doubt; inactive means no such curve, though single readings can be large or run the other way;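 further: the enzyme is Sfp with the accession as filed and its product quenches rhodamine fluorescence; potency means the concentration at half of the fitted maximal effect; 0% = enzyme reaction without inhibitor and -100% = no enzyme wells; top concentration of the series not given in the record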
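Compounds were incubated with enzyme (final 15 nM) for 15 min at room temperature before substrate addition started the reaction. Fluorescence at 525 nm excitation, 598 nm emission was recorded immediately and after 30 minutes.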
TRPV1 PAM: enhances activation of the human vanilloid receptor TRPV1; Q8NER1; TRPV1-expressing cells, Fluo-8 calcium influx, capsaicin EC20 potentiation; host cell line not named in the record; control for the full effect not named in the record; potentiation, % at 8.33 µM; 320,000 tested, 0.02% active; AID 540277; active means potentiation above 80%; inconclusive means 30% to 80%; inactive means below 30%; further: 0% is about no effect
Target sequence (Q8NER1 whole entry, looked up): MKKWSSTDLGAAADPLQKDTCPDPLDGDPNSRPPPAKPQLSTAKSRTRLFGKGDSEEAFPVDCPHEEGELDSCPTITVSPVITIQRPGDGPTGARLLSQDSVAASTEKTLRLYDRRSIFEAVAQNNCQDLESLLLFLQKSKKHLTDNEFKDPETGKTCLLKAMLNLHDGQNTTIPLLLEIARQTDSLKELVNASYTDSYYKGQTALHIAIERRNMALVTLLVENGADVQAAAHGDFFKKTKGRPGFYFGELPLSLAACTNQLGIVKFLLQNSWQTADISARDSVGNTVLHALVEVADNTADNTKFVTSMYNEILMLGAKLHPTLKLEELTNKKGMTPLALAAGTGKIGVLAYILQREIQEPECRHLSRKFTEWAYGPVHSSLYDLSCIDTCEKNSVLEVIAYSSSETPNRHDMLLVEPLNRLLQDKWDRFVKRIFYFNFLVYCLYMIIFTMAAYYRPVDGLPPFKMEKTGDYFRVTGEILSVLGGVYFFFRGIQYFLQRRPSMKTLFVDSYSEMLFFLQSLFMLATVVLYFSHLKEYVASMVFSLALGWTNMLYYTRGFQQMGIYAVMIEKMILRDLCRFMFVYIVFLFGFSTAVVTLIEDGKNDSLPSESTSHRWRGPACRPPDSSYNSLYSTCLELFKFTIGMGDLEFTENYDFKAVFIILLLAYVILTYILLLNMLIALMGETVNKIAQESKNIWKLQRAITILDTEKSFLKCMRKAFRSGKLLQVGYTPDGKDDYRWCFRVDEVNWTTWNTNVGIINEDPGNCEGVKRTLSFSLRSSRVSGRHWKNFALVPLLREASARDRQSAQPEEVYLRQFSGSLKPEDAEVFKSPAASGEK
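TRPV1-expressing cells were cultured overnight at 35.5C and loaded with Fluo-8 calcium dye for 40 to 90 min at room temperature. After a 10 s baseline, compound was added and calcium influx was read kinetically for 3 min (ex 480/em 520 nm).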
ClpP mod: qHTS Assay for Activators of ClpP | ATP-dependent Clp protease proteolytic subunit (Bacillus subtilis (strain 168)), P80244 | purified B. subtilis ClpP, FRET peptide cleavage, 20 min | Potency, µM (series often up to 57.5 µM), for inactives: at the top dose activity change, negative = active | 340,000 tested, 1.9% active | AID 651965, 2013; active = well fitted falling curve with a large enough effect; inconclusive = small, poorly fitted or top-dose-only effect; inactive = no such curve, though single readings can be large or run the other way; further: potency means the concentration at half of the fitted maximal effect; the source files actives as falling curves though it sought activators and does not explain the sign; nearly all actives have a fitted effect of over 65% in size; many hits overshoot -100%
Target sequence (P80244 whole entry, looked up): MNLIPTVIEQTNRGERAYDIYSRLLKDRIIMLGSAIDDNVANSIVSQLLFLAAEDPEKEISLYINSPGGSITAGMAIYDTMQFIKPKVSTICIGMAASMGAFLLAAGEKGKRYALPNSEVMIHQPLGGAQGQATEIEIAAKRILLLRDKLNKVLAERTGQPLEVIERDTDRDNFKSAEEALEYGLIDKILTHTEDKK
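Purified B. subtilis ClpP, 10 microg/mL final in Tris/HCl pH8 with KCl, BSA, glycerol and Tween-20, cleaved an Abz/nitrotyrosine-quenched decapeptide. Fluorescence (ex 320, em 430) was read at 0 and 20 min at room temperature. Delta was normalized to 5.8 microM ADEP and DMSO/no-enzyme controls.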
D2 potentiator: human D2 receptor positive allosteric modulation; P14416; DiscoveRx D2 beta-arrestin cells, luminescence, 90 min; 100% = 57 uM dopamine signal; potentiation, % (test concentration not listed); 360,000 tested, 0.23% active; AID 624464; active = potentiation of 50% or more; inconclusive = 30% to 50%; inactive = 30% or less;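 further: compound concentration not given in the record; tested on top of an EC20 dose of dopamine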
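PathHunter beta-arrestin assay in DiscoveRx D2 cells. Compounds were added with an EC20 of dopamine (50 nM final) for 90 min at 37 deg C. Luminescence was read 1 h after detection reagent, with 57 uM dopamine as the EC100 control.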
gsp antag: antagonizes gsp, the McCune-Albright syndrome mutation; 340,000 tested, 0.4% active; Potency, µM (top dose mostly 76.9 µM), inactives show at the top dose activity change, negative = inhibition, hits mostly inhibitors; gsp-mutant cells, cAMP HTRF, 30 min; control for the full effect not named in the record; active = falling curve of any shape with a large fitted effect; inconclusive = falling curve, mostly with a smaller effect; inactive = flat or rising curve; cell line not stated here;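 further: intracellular cAMP measured with PDE inhibitor Ro 20-1724 present during compound exposure; potency means the concentration at half of the fitted maximal effect; on the % scale 0 is the no-effect control and ±100 the full control effect; nearly all actives have a fitted effect of over 65% in size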
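HTRF cAMP read-out (cAMP-d2 plus anti-cAMP antibody-K in lysis buffer, 30 min RT). Before lysis, cells are exposed to compounds with […] for 30 min at 37C in DPBS containing Ca/Mg, BSA and Tween 20.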
Menin-MLL FL inh: displaces fluorescein MLL peptide from human menin; FP activity change, % at 61.4 µM; 290,000 tested, under 10 active; Fluorescence polarization, fluorescein-MLL peptide displacement from menin; AID 1766; inconclusive = falling polarisation curve, or a change in total fluorescence; inactive = total fluorescence flat and polarisation flat or rising; no compound was filed as active; the % refers to the polarisation; negative = inhibition;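 further: % of control where 0% means no effect; inhibitors lower the polarisation; unlabelled MLL peptide was the positive control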
gsp ag: gsp mutant agonism; gsp mutant cells, cAMP HTRF, 30 min; control for the full effect not named in the record; 340,000 tested, 0.13% active; Potency, µM (titrated, usually from 76.9 µM), for the others: top-dose activation (cAMP increase), actives largely listed as activators; active = well fitted activation curve with a large enough effect; inconclusive = small, poorly fitted or top-dose-only effect, or another doubt; inactive = no such curve, though single readings can be large or run the other way; cell line not stated here;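 further: phosphodiesterase inhibitor Ro 20-1724 added with compounds to block cAMP breakdown; potency means the concentration at half of the fitted maximal effect; nearly all actives have a fitted effect of over 60% in size; about a fifth of the inactives were tested at one dose only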
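Cells in DMEM/10% FBS with G418 were pretreated with compounds in DMSO plus […] (300 uM stock) for 30 min at 37C. cAMP was measured by HTRF (cAMP-d2 plus anti-cAMP antibody-K) after 30 min at room temperature.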
The depositor's hits bear a star; ? = inconclusive; . = not tested or not shown; & = joins results of further samples; [ ] = remark or other dose.

SMILES	Sfp inh	TRPV1 PAM	ClpP mod	D2 potentiator	gsp antag	Menin-MLL FL inh	gsp ag
CC1Cc2ccccc2N1C(=O)COC(=O)c1ccc(Cl)c(S(=O)(=O)N2CCOCC2)c1 (stereo unspecified)	.	12	-3.4%	-3	-2%	.	0%
O=C(COc1cccc(C(F)(F)F)c1)N1CCN(c2ccc(O)cc2)CC1	28µM*	-8	.	15	-6%	-5.3	4%[15.4 µM]
N#Cc1c(N)nc2c(c1N)CC(COc1ccccc1)O2 (stereo unspecified)	5%	11	-4.8%	-9	11%	-1.1	19%
Cc1ccc(S(=O)(=O)NCC2(c3ccccc3)CCN(C)CC2)cc1	10%	4	-2.2%	-7	3%	1.6	-45%[inhibitor]
CCOC(=O)N1CCN(c2cc3[nH]c(=S)[nH]c3cc2F)CC1	23%	-3	?	0	0%	-0.7	-3%
Cc1cccc(C)c1OCC(=O)N=Nc1c(O)[nH]c2ccc(Br)cc12	9%	17	1.1%	-4	-11%	4.9	?
O=C(Nc1ccccc1F)C1CCN(S(=O)(=O)c2cccc3nonc23)CC1	1%	-1	.	-6	0%	-17	12%
Cc1ccccc1-n1ncc2c1CC(C)(C)CC2NC(=O)c1snnc1C (stereo unspecified)	14%	-12	0.6%	-2	1%	5.4	13%
CO/N=C/C(C#N)c1ncc(C(F)(F)F)cc1Cl (stereo unspecified)	-3%	-9	-7.3%	-7	-35%	6.7	-8%
COC(=O)c1ccc(NC(=O)C2CCCN2C(=O)Nc2cccc(C(C)=O)c2)cc1 (stereo unspecified)	21%	-4	?	-16	11%	-14	-2%[15.4 µM]
Cc1c(C(=O)N(C)CCc2cnn(C)c2)oc2c(F)cccc12	4%	-3	0.4%	6	2%	.	-13%
CN1CCN(C(=O)C23CCC(C)(c4nc5ccccc5nc42)C3(C)C)CC1 (stereo unspecified)	5%	6	-1.5%	-47	8%	1.1	?
O=C(NCCCN1CCOCC1)c1nn2c(C(F)(F)F)cc(-c3ccco3)nc2c1Cl	13%	15	.	-5	12%	2.2	?
COc1ccc(-c2csc(NC(=O)CS(=O)(=O)c3ccccc3)n2)c(OC)c1	.	.	-1.1%	-3	.	.	-24%
O=C(CSc1nnc2sc3ccccc3n12)NCc1ccco1	1%	-2	0.1%	3	1%	4.2	?
COc1cccc(-c2nc(CS(=O)(=O)CC(=O)NCCc3ccccc3)c(C)o2)c1	2%	-6	-29%	-5	-11%	-7.0	26%
NS(=O)(=O)c1ccc(NC(=O)COC(=O)CCC2CCCCC2)cc1	7%	-6	0.9%	-19	1%	4.6	-11%
CCOc1ccc(-n2c(=O)cc(N3CCN(c4ccccc4)CC3)[nH]c2=O)cc1	-4%	-3	-0.1%	-3	9%	-0.6	25%
N#Cc1cnc(NOCc2ccc(Cl)cc2)nc1	7%	-6	0.0%	-9	7%	1.6	-2%[15.4 µM]
Cc1[nH]c2ccc(-c3nnc(SCC(=O)c4ccccc4F)o3)cc2c1C	2%	4	-1.8%	-9	-10%	5.6	-11%
O=C(Nc1ccc(NC(=S)NC(=O)c2ccccc2Cl)cc1)c1cccc(Cl)c1	.	.	-1.4%	-4	0%	.	22%
CCN(CC)CCCNC(=O)C(C)n1nc(C)c2sc3ccccc3c2c1=O (stereo unspecified)	12%	4	?	-25	13%	2.5	-44%[inhibitor]
Cc1ccc(Nc2nc(CSc3n[nH]c(N)n3)cs2)cc1	?	11	0.9%	-1	-13%	-0.9	10%
O=C(COc1ccc(Cl)cc1Br)NCC(c1ccco1)N1CCCC1 (stereo unspecified)	.	4	-1.4%	-33	3%	.	-15%
C/C=C/C=N/Nc1nc(C)cc(=O)[nH]1	?	-9	.	-1	17%	-0.3	-16%[15.4 µM]
COc1ccc(C(=O)Nc2cc(C)cc(C)c2)cc1S(=O)(=O)N1CCOCC1	-1%	-2	0.9%	-7	-13%	-1.7	-46%
CCOC(=O)c1c(-c2ccc(OC)cc2)csc1NC(=O)CSc1nnc(C)c(=O)[nH]1	16%	1	.	0	.	0.1	-10%[15.4 µM]
CCOc1ccc(C2=CC(c3ccccc3)n3ncnc3N2)cc1 (stereo unspecified)	.	.	4.3%	-16	-7%	.	?
COc1ccc(OC)c(N2CC(O)(c3ccccc3)[N+]3=C2SCCC3)c1 (stereo unspecified)	9%	-16	.	-7	12%	3.3	20%[15.4 µM]
CCNc1nc(NCC)n2c(SCC(=O)Nc3ccc(F)cc3[N+](=O)[O-])nnc2n1	9%	12	-1.6%	-1	-1%	2.8	16%[15.4 µM]
O=C(CN1C(=O)c2ccccc2C1=O)OCC(=O)N1CCN(c2ccccc2)CC1	.	?	-1.3%	7	5%	.	-9%
CCC(C)NC(=O)c1cn(CCOC)c(=O)c2c1c1ccccc1n2C (stereo unspecified)	10%	10	3.8%	-15	-8%	-10	-19%
O=C(C[n+]1ccncc1)c1ccccc1	-10%	-14	0.7%	-14	-9%	9.9	-3%[15.4 µM]
COc1cccc(CN2CC(C(=O)NCCCCc3ccccn3)CCC2=O)c1 (stereo unspecified)	11%	-2	0.1%	?	0%	.	-11%
Cc1ccc(C)n1-c1ccccc1N1CCCCC1	11%	-9	.	-10	-59%	4.3	10%[15.4 µM]
COn1c(=O)c(-c2cccc(Br)c2)[n+]([O-])c2ccccc21	14%	-9	.	-4	4%	-3.7	-24%
Cc1csc2ncc(C(=O)Nc3ccc(C(F)(F)F)cc3)c(=O)n12	7%	-17	-25%	-5	3%	5.4	15%
CSc1ccc(CN(C)C(=O)CNC(=O)c2sc3ccccc3c2Cl)cc1	9%	3	-2.3%	-11	-28%	1.2	-3%
CCc1ccc2[nH]c(=O)c(CN(CCN(C)C)C(=O)Nc3ccccc3OC)cc2c1	13%	3	28µM*	-31	-5%	0.0	27%
O=C(Oc1cc2oc(=O)c3c(c2cc1Cl)CCCC3)c1ccco1	-14%	-6	175%	6	-16%	1.0	5%
COc1ccc(-n2c(C)nnc2SCC(=O)NC2CC2)cc1	1%	5	-2.5%	-4	13%	-3.3	15%
Cc1cc(NC(=O)CSc2nncn2N)no1	14%	-19	.	-33	10%	3.6	15%[15.4 µM]
CC(=O)Nc1ccc(S(=O)(=O)N2C(C)CCCC2C)cc1 (stereo unspecified)	8%	-1	-0.1%	-3	8%	-1.2	5%
CC1CCc2c(sc(NC(=O)COC(=O)C3CCCO3)c2C#N)C1 (stereo unspecified)	-7%	-9	-1.8%	-3	0%	-0.6	11%
O=C(OCC#CCSc1nnc(-c2ccc(Br)cc2)o1)c1cccs1	-2%	6	-28%	-13	-19%	-0.8	9%[15.4 µM]
CC(C)(C)NC(=O)CN(Cc1ccco1)C(=O)CCC(=O)Nc1nccs1	23%	11	.	-2	3%	2.2	5%
O=C(O)c1ccc(/C=N/NC(=S)NCc2ccccc2)cc1	-5%	5	-13%	-6	-2%	-1.5	-40%[inhibitor]
CCCCN(CC)Cc1c(C)[nH]c2c(ccc3ccccc32)c1=O	-2%	?	-0.5%	-14	10%	2.0	-7%[15.4 µM]
O=C(COc1ccc(F)cc1)N(Cc1cccs1)C1CCS(=O)(=O)C1 (stereo unspecified)	12%	-6	-0.6%	-5	0%	0.4	8%
COC(=O)c1[nH]c2ccc(C)cc2c1NC(=O)CN1CCCC(C)(C)C1	8%	-12	18µM*	-6	-14%	3.2	24%
CCOc1ccc(C2/C(=C(\O)c3cccc(OC)c3)C(=O)C(=O)N2c2cc(C)on2)cc1OC (stereo unspecified)	8%	1	-11%	-4	-3%	2.2	?
O=P(O)(CCCP(=O)(O)CCc1ccccc1)CCc1ccccc1	-10%	-1	-0.2%	-33	10%	-7.5	-73%[inhibitor]
CN(C/C=C/C#CC(C)(C)C)Cc1cccc2ccccc12	11%&-12%	.	-1.0%	-21	1%	-14&1.0	.
Cc1c(Br)c([N+](=O)[O-])nn1CC(=O)N1CCCc2ccccc21	14%	8	-0.7%	-11	-4%	0.8	-34%[inhibitor]
COc1ccc(Cn2c(-c3ccc(C)cc3)c[n+]3ccccc23)cc1	7%	9	.	-8	15%	2.3	15%[15.4 µM]
Cc1cc2oc(=O)cc(CN3CCN(C/C=C/c4ccccc4)CC3)c2cc1O	-28%	11	.	.	.	4.3	.
Cc1ccc(/C=C/C(=O)N2CCN(S(=O)(=O)c3c(C)c(C)cc(C)c3C)CC2)o1	14µM*	4	-1.6%	5	-4%	8.7	7%
COC(=O)c1sccc1NC(=O)/C=C\c1ccc(Cl)cc1Cl	-4%	-2	-17%	-5	10%	1.4	-22%
CCOC(=O)C1CCCN(C(=O)C2CCCN(S(C)(=O)=O)C2)C1 (stereo unspecified)	10%	-6	3.5%	9	-1%	-0.5	5%
OCC1CCCC(n2cnc3c(=S)nc[nH]c32)O1 (stereo unspecified)	16µM*	-11	.	-13	2%	4.6	-38%[inhibitor][15.4 µM]
New compounds follow:
SMILES	Sfp inh	TRPV1 PAM	ClpP mod	D2 potentiator	gsp antag	Menin-MLL FL inh	gsp ag
COc1cc2c(cc1OC)CN(C(=O)c1ccc(Br)o1)CC2	14%	-1	-7.9%	4	0%	1.9	10%[15.4 µM]
COc1ccccc1CNc1n[nH]c(NCc2ccccc2OC)n1	28%	1	1.6%	-7	6%	1.6	-23%
O=C(CCN1C(=O)c2ccccc2C1=O)NC1=NCCS1	14%	-3	0.4%	-7	8%	3.6	-32%
O=C(CCNS(=O)(=O)c1cccc2nonc12)N1CCN(c2cccc(Cl)c2)CC1	6%	-21	-2.0%	-17	-16%	3.0	15%
O=C(c1ccco1)N1CCN(C(=O)c2cnn3c(C(F)(F)F)cc(-c4cccs4)nc23)CC1	-7%	-12	-18%	0	7%	0.8	0%
O=C(CNc1ccccc1)c1ccc([N+](=O)[O-])cc1	50µM*	-3	1.2%	?	0%	1.5	-3%

Among those listed so far, these have a tert-butyl group:
SMILES	Sfp inh	TRPV1 PAM	ClpP mod	D2 potentiator	gsp antag	Menin-MLL FL inh	gsp ag
CC(C)(C)NC(=O)CN(Cc1ccco1)C(=O)CCC(=O)Nc1nccs1	23%	11	.	-2	3%	2.2	5%
CN(C/C=C/C#CC(C)(C)C)Cc1cccc2ccccc12	11%&-12%	.	-1.0%	-21	1%	-14&1.0	.
